Screening results: PubChem, several laboratories
ugtP null kill: compounds lethal to S. aureus RN4220 ugtP deletion mutant; growth inhibition, % (concentration not given with the values); OD600 growth, 16 h; some inactives read as strong as hits; AID 1259309; 330,000 tested, 0.54% active;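 active means z-score under -3 and OD600 up to 0.15 on both plates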;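 further: plate controls were untreated wells for no effect and antibiotic for full effect; wells of about 80 µL received 100 nL stock; the first replicate is given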
Sa RN4220 lethal: kills Staphylococcus aureus RN4220; S. aureus RN4220 growth, OD600, 16 h; inhibition, % (concentration not given with the values); 330,000 tested, 0.33% active; AID 1259311;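 active means z-score of -3 or lower and OD600 up to 0.18 on both plates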;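 further: plate controls were untreated cells for no effect and reference antibiotic for full effect; stock transfer was 100 nL into about 80 µL; one replicate is shown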
PrP UTR inh: inhibition of PrP 5' UTR reporter expression | cell-based PrP 5' UTR mRNA reporter, plate reader | 340,000 tested, 0.35% active | inhibition, % (no concentration beside the values);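 active means every replicate at 50% or more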;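 further: 0 = median of the neutral control wells; tested in H4 reporter cells; numbers are from one replicate; inactives centre near -14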
Autofluor counter: flagged as autofluorescent in microsphere protease counterscreen | 360,000 tested, 3.1% active | compound autofluorescence counterscreen, microsphere flow cytometry; active compounds read high | fluorescence intensity (concentration not given with the values) | AID 624483;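 active means at least 3 SD above the mean of all compounds, about 16000 in these data; inconclusive means too few beads counted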;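 further: 100 nL of 1 mM stock went into each well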
BJeLR lethal: kills HRASV12-expressing BJeLR cells; BJeLR (HRASV12) viability, CellTiter-Glo ATP luminescence, 48 h; reference of the scale not given here; inhibition, % (test concentration not listed); 300,000 tested, 0.17% active; AID 1554;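 active means replicate mean above 50%; inconclusive means above 50% but judged a plate artefact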;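 further: 50 nL library stock added to about 25 µL; numbers are from one replicate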
Mtb hypoxia rep: reduces hypoxia-regulated biosensor signal in M. tuberculosis; M. tuberculosis hypoxia-regulated fluorescent reporter, fluorescence; fluorescence inhibition, % (concentration not given with the values); 300,000 tested, 0.1% active; AID 1159583;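 active means 35 to 45% if threefold the growth effect, above 45% if 1.5-fold the growth effect; inactive means the rest, general growth blockers included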;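 further: wells of about 50 µL received 100 nL stock; 0% = vehicle wells and 100% = reference inhibitor wells; whole bacteria with a GFP reporter of the hypoxia response; strong numbers were not always called active; many hits fall short of the cut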
Mtb hypoxia rep growth: second read-out of Mtb hypoxia rep, no call of its own (marks repeat the call); growth inhibition, %; measured here: M. tuberculosis growth (absorbance);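 0% = vehicle and 100% = reference antibiotic; read after six days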
The depositor's hits bear a star; ? = inconclusive; nt = not tested or not shown; & = joins results of further samples.

Every second line gives: ugtP null kill	Sa RN4220 lethal	PrP UTR inh	Autofluor counter	BJeLR lethal	Mtb hypoxia rep	Mtb hypoxia rep growth
- CCN(CC)c1nc(N2CCOCC2)nc2ccccc12
 : 11	6.8	-8	3352	-1	-1	4
- CCOC(=O)N1CCC(N2CCN(C3CCCC3)C(CCO)C2)CC1 (stereo not given)
 : 8	2.2	-26	4651	-3	0	8
- COc1ccccc1CNC(=O)[C@H](Cc1c[nH]c2ccccc12)NC(=O)[C@@H]1Cc2ccccc2CN1
 : -3	6.4	-10	5775	-6	nt	nt
- CCN1C(=O)c2cccc3c(S(=O)(=O)Nc4ccccc4)ccc1c23
 : -8	9.6	-30	6473	-1	10	9
- CC12CC(=O)C3C(CCC4=CC(=O)CCC43C)C1CC=C2CC(=O)O (stereo not given)
 : 3	3.6	-12	4812	nt	8	2
- Cc1c(C(=O)C(=O)NCCc2ccc(S(N)(=O)=O)cc2)c2ccccc2n1C
 : 12	8.3	-19	2045	-1	0	7
- O=C(Nc1cccc(F)c1)[C@@H]1CCCN1
 : 4	0.7	-11	3434	4	-5	13
- Cc1cc(C(=O)Cn2nnc(-c3ccc(Cl)cc3)n2)c(C)n1-c1ccccc1
 : 52	-6.8	-35	2195	0	3	-1
- O=C(COC(=O)C1=NN(c2ccccc2)C(=O)CC1)Nc1ccc([N+](=O)[O-])cc1C(F)(F)F
 : 3	7.5	-11	3441	nt	10	15
- CCOc1cc(C(=O)N2CCCN(C)CC2)cc(OCC)c1OCC
 : 5	1.9	-6	nt	3	-2	-3
- Cc1c(NC(=O)C(C)OC(=O)CCC2CCCC2)c(=O)n(-c2ccccc2)n1C (stereo not given)
 : 6	9.2	-35	4551	-3	17	0
- CO/N=C/NC(=O)C1=NOC(CNc2ncc(C(F)(F)F)cc2Cl)C1 (stereo not given)
 : nt	nt	-16	3437	4	nt	nt
- CC(=O)Nc1cc(C(=O)N2CCC3(CC2)OCCO3)ccc1Sc1ccc(F)cc1
 : 4	7.9	-14	4487	nt	-8	-4
- COc1ccccc1CC(NC(C)=O)C(=O)NC1CCN(C(=O)Nc2ccc(F)cc2)CC1 (stereo not given)
 : nt	nt	-20	3669	1	nt	nt
- COC(=O)c1ccc(CSc2ccccc2C)o1
 : 7	4.7	nt	10409	15	4	12
- CC1CC(C(=O)Nc2ccccc2)C(=O)O1 (stereo not given)
 : 2	2.1	-7	5375	-6	7	0
- CC(C)(O)[C@@H]1Cc2c(ccc3ccc(=O)oc23)O1
 : nt	nt	-25	3557	-2	nt	nt
- CNCC(O)COc1ccccc1 (stereo not given)
 : 1	1.4	-47	5704	-2	0	8
- C#CCNC(=O)C1=CC(C)CC(OCc2ccc(CO)cc2)O1 (stereo not given)
 : -3&-1	-3.7&-0.4	nt	nt	nt	-4&21	10&10
- CCc1noc(C)c1C(=O)NCCc1ccc(S(N)(=O)=O)cc1
 : 0	0.2	-2	?	-1	-6	0
- COC(CC(=O)NNC(=S)Nc1ccccc1)OC
 : 4	3.5	-16	1978	-6	6	-4
- Clc1ccc2c(c1)C(c1ccccc1Cl)=NCc1nncn1-2
 : 7	1.8	-5	3689	-3	nt	nt
- COc1ccc(N2CCN(C(=O)C3Cc4ccccc4CN3C(=O)c3ccccc3)CC2)cc1 (stereo not given)
 : 3	11	-43	4017	-8	-9	8
- Cc1ccc2cc(C#N)c(N3CCN(C(=O)c4cccs4)CC3)nc2c1
 : 6	11	-23	3441	-2	6	-5
- CN(C(=O)COC(=O)c1ccc2[nH]c3c(c2c1)CCCC3)C1CCS(=O)(=O)C1 (stereo not given)
 : 22	1.6	-6	2377	0	2	7
- CCn1c(C)csc1=NS(=O)(=O)c1ccccc1
 : 3	3.3	nt	nt	nt	4	1
- CC(CCN1CCC(n2nccc2NC(=O)c2ccccc2Cl)CC1)c1ccccc1 (stereo not given)
 : 11	-0.7	-15	5990	0	13	4
- CNc1nc(Oc2ccc(=O)n(C)n2)nc(N2CCOCC2)n1
 : -2	-6.3	-20	3518	-3	15	5
- CC(=O)ON=Cc1c(NCc2ccccc2)nc2c(C)cccn2c1=O
 : -7	8.1	nt	nt	nt	12	11
- COc1ccc(OC2OC3COC(c4ccco4)OC3C(O)C2NC(C)=O)cc1 (stereo not given)
 : 0	4.6	-22	2037	3	3	2

Twelve entries already listed, ordered by length of the SMILES, highest first:
Every second line gives: ugtP null kill	Sa RN4220 lethal	PrP UTR inh	Autofluor counter	BJeLR lethal	Mtb hypoxia rep	Mtb hypoxia rep growth
- CN(C(=O)COC(=O)c1ccc2[nH]c3c(c2c1)CCCC3)C1CCS(=O)(=O)C1 (stereo not given)
 : 22	1.6	-6	2377	0	2	7
- COc1ccc(N2CCN(C(=O)C3Cc4ccccc4CN3C(=O)c3ccccc3)CC2)cc1 (stereo not given)
 : 3	11	-43	4017	-8	-9	8
- CC(CCN1CCC(n2nccc2NC(=O)c2ccccc2Cl)CC1)c1ccccc1 (stereo not given)
 : 11	-0.7	-15	5990	0	13	4
- COc1ccc(OC2OC3COC(c4ccco4)OC3C(O)C2NC(C)=O)cc1 (stereo not given)
 : 0	4.6	-22	2037	3	3	2
- Cc1ccc2cc(C#N)c(N3CCN(C(=O)c4cccs4)CC3)nc2c1
 : 6	11	-23	3441	-2	6	-5
- CC(=O)ON=Cc1c(NCc2ccccc2)nc2c(C)cccn2c1=O
 : -7	8.1	nt	nt	nt	12	11
- CCc1noc(C)c1C(=O)NCCc1ccc(S(N)(=O)=O)cc1
 : 0	0.2	-2	?	-1	-6	0
- Clc1ccc2c(c1)C(c1ccccc1Cl)=NCc1nncn1-2
 : 7	1.8	-5	3689	-3	nt	nt
- CCn1c(C)csc1=NS(=O)(=O)c1ccccc1
 : 3	3.3	nt	nt	nt	4	1
- COC(CC(=O)NNC(=S)Nc1ccccc1)OC
 : 4	3.5	-16	1978	-6	6	-4
- CC1CC(C(=O)Nc2ccccc2)C(=O)O1 (stereo not given)
 : 2	2.1	-7	5375	-6	7	0
- CNCC(O)COc1ccccc1 (stereo not given)
 : 1	1.4	-47	5704	-2	0	8

(cont.)
Every second line gives: ugtP null kill	Sa RN4220 lethal	PrP UTR inh	Autofluor counter	BJeLR lethal	Mtb hypoxia rep	Mtb hypoxia rep growth
- CCOC(=O)c1[nH]c2ccc(F)cc2c1NC(=O)CN1CCc2cc(OC)c(OC)cc2C1
 : -11	-3.4	nt	nt	-8	-1	10
- Cc1cc(C)c(NC(=O)CS(=O)CC(=O)N2CCN(c3ccccc3)CC2)c(C)c1 (stereo not given)
 : 3	0.2	-20	16393*	-1	5	3
- Cc1cc(=O)n2c3ccccc3n(CC(O)CN3CCCC3)c2c1C#N (stereo not given)
 : 9	2.8	-21	4713	6	5	10
- CCCN(CCC)Cc1c(C(=O)N/N=C/c2ccc(Br)cc2)nnn1-c1nonc1N
 : nt	nt	-20	5246	-8	nt	nt
- CC(=O)Nc1ccc(NC(=O)N(c2ccccc2)c2ccccc2)cc1
 : 11	4.0	-12	5586	7	7	2
- O=C(C=CNc1ccc(F)c(Cl)c1)c1ccco1
 : 3	8.0	nt	nt	nt	2	2
- COc1ccc(C(=O)O)cc1S(=O)(=O)Nc1ccc2cn[nH]c2c1
 : 7	4.2	-18	3473	nt	5	11
- COc1ccccc1C(=O)NC(=O)COC(=O)c1nc(Cl)ccc1Cl
 : 10	3.6	-9	?	-1	11	-4
- CC12CCC3C(CCC4N(CCO)CCC34C)C1CCC2O (stereo not given)
 : 1	2.7	-7	3516	9	-5	6
- O=C(Nn1cnc2ccccc2c1=O)c1ccc(Cl)c([N+](=O)[O-])c1
 : 12	2.1	-19	3330	-1	8	2
- CCOC(=O)C1CCN(C(C)C(=O)c2c(C)[nH]c3cc(C)ccc23)CC1 (stereo not given)
 : -16	3.2	-11	4971	-4	nt	nt
- COc1ccc(-c2ccc(CCC(=O)O)n2C(C)C)cc1
 : 22	0.8	-25	8227	3	7	3
- COc1ccccc1OCCC(=O)OCC(=O)Nc1cccc(Br)c1
 : 3	7.1	-22	2467	3	5	7
- COc1cc(Br)c(CNc2cc(C)ccc2C)cc1OC
 : 3	4.5	-42	3953	-13	5	9
- Cc1ccc(CNC(=O)c2cccc3c2C(=O)c2ccc(N4CCCCC4)cc2S3(=O)=O)cc1
 : 14	5.2	1	3769	nt	7	23
- CC(C)CC(c1nnnn1Cc1ccccc1)N1CCC(C(N)=O)CC1 (stereo not given)
 : -1	7.6	-2	4324	3	5	11
- COc1cc(-c2cc(OC)c(O)c(OC)c2)cc(OC)c1O
 : 8	2.8	-5	4242	nt	14	1
- N#CCCN1CCN(Cc2ccccc2)CCC1=O
 : -2	1.9	-4	3794	-6	8	14
- COCCNC(=O)COc1ccccc1Cl
 : -1	5.8	-6	3165	-25	9	3
- COc1cccc(N2CCN(c3ccc4nnc(CCC(=O)N5CCN(C)CC5)n4n3)CC2)c1
 : 6	1.4	0	6410	2	-4	3
- O=C(Nc1ccc(F)cc1)c1c(Cl)nc2ccccn12
 : -2	4.7	-41	2178	-4	4	3
- COc1cccc(C=Nn2nnnc2N)c1OCc1ccccc1Cl
 : -15	5.9	nt	nt	nt	-2	10
- CC(C)c1ccccc1NS(C)(=O)=O
 : 7	5.8	nt	nt	3	14	-2
- O=C(Nc1ccccc1)N1CCCN(c2nccc(C(F)(F)F)n2)CC1
 : 10	5.0	-33	4106	-4	11	11
- CCc1cc(C(Cc2csc(C)n2)=NO)c(O)cc1O
 : 2	17	nt	nt	nt	-1	5
- CCCc1c(C)nc(-c2ccc(C)cc2)nc1OC(=O)N(C)C
 : 12	3.9	-26	4556	8	14	4
- CCc1ccccc1NC(=O)COC(=O)C1CC(=O)N(c2ccc(F)cc2)C1 (stereo not given)
 : 6	2.3	-27	4667	nt	3	3
- O=C(NCc1ccco1)c1cc(C(=O)C2CCCCC2)c[nH]1
 : 7	4.0	-26	6040	-2	5	14
- CN(CC(=O)Nc1ccc(F)c(F)c1F)C(=O)CC1CCCCC1
 : 3	5.0	-19	2869	nt	3	1
- Cc1ccc(C(=O)/C=C/NNC(=O)c2ccccc2)cc1
 : 1	0.2	nt	nt	nt	8	-6
- Cc1ccc(NC(=O)CSc2ccccn2)cc1S(=O)(=O)N1CCOCC1
 : -3	1.5	-2	3511	-2	-2	-2
- CCOC(=O)C1=C(c2ccccc2)N2CCS(=O)(=O)N=C2S1
 : 1	0.5	7	9212	0	-3	6
- CC(C)C=C1CCCCC1N(C)C(=O)NC(C)C (stereo not given)
 : 0	1.6	nt	nt	nt	12	-4
- CCC1CCc2sc(C(=O)N(C)CC(=O)Nc3ccc(N4CCOCC4)cc3)cc2C1 (stereo not given)
 : 9	6.3	-23	nt	-17	5	2
- Cc1ccccc1C(=O)ON=C(N)c1cccc([N+](=O)[O-])c1
 : -10	-1.6	nt	nt	nt	-5	4
- O=C(c1ccc2nccnc2c1)N1CCCC(Nc2ccc(F)c(F)c2)C1 (stereo not given)
 : 14	1.0	6	4891	-3	13	-6
- COc1ccc(C(=O)NCC(=O)NN=Cc2cn(C)c3ccccc23)cc1OC
 : 0	-0.8	nt	nt	nt	7	9
- O=C(Cc1ccccc1)NN1C(=O)c2ccccc2C1=O
 : 5	2.6	-29	4426	4	6	3
- COc1ccc(C)cc1Cn1nnc2ccccc21
 : -5	7.2	-30	3216	6	8	0
- Cc1nc2ccccn2c1C(=O)NC1CCCC1
 : 4	7.8	-4	4292	8	2	4
- COc1ccc(Nc2nc(N)c3ccccc3n2)c(OC)c1
 : 3	0.6	-65	4372	-1	4	2
- COc1ccc(C)cc1-n1nnnc1SCc1cn2ccsc2n1
 : -2	10	0	3244	-5	18	11
- COc1ccc(/C=C2\SC(=S)N(CCC(=O)Nc3ccc(O)cc3)C2=O)cc1
 : 7	-2.5	-36	3805	-5	7	10
- Cc1n[nH]c(C)c1Cc1ccc(C(=O)O)cc1
 : 4	2.9	-27	7937	8	16	5
- Cc1nn(-c2ccc(C(=O)OC(C)C)cc2)c(C)c1[N+](=O)[O-]
 : -1	1.1	-49	3023	-11	6	5
- Cc1ccc(CN2CC(C(=O)N3CC(C)CC(C)C3)CC2=O)cc1 (stereo not given)
 : 8	6.1	-7	?	-16	-9	4
- O=C(CSc1nnc(C2CC2)n1CC1CCCO1)Nc1ccccc1Cl (stereo not given)
 : 0	-0.3	-11	6003	0	14	6
- Cc1cc(/C=C2/NC(=O)NC2=O)c(C)n1-c1ccc(N2CCOCC2)cc1
 : -12	6.5	-22	2038	-5	-3	17
